Bioassay records (PubChem BioAssay)
Ecoli rRNA inh = inhibitors of bacterial rRNA selective over humanized ribosomes; E. coli WT GFP vs humanized-ribosome RFP mutants, fluorescence, 24 h; active compounds read low; DMSO median 0, no signal -100; GFP signal change (wild-type ribosome), % (test concentration not listed); 1.6% of 350,000 active;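 active = significant combined selectivity score with lowered wild-type GFP, culture density cut under 30%, mutant RFP and density less affected; inactive = any of these conditions unmet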; note: one replicate is shown; some compounds called inactive have numbers as strong as hits
AF4-AF9 inh = inhibitors of human MLL-AF4/AF9 interaction | 0.47% of 350,000 active | inhibition, % at 10 µM | AlphaScreen, biotin-AF4 peptide binding to FLAG-AF9 | AID 651704;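 active = every replicate reaching a set inhibition limit, whatever the replicate mean, cut at about 25% in these data; inconclusive = mean inhibition reaches that limit but some replicates miss it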;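 note: 0% = plate neutral control median and 100% = total signal loss; the record names both 10 and 1 µM as test concentration; the first replicate is given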
ALR inh = inhibitors of human sulfhydryl oxidase ALR | P55789 | purified ALR, DTT oxidation, H2O2 HRP-luminol luminescence | inhibition, % (test concentration not listed) | 3.8% of 290,000 active | AID 485317;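 active = mean and each replicate at 75% or more; inconclusive = only one of the two met; inactive = neither met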;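 note: stock transfer was 7.5 nL into about 7.5 µL; 0% = neutral wells and 100% = wells with inactivated enzyme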
Target sequence (P55789 whole entry, looked up): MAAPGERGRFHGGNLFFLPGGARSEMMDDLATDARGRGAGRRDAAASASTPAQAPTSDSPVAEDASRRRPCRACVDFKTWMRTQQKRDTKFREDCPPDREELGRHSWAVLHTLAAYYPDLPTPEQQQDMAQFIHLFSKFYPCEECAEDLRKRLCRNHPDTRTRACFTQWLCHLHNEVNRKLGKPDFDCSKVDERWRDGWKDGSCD
HNF4A DNA FP = change in binding of human HNF4 alpha to DNA; P41235; HNF4a-FITC DNA binding, fluorescence polarization, 1 h; activity change, % at 10 µM; 0.3% of 360,000 active; AID 1224865; in the data active = activity change above about 30%, passing the limit was not always enough;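 note: controls were the assay level and a saturating level of protein; the project sought stronger binding though the title names inhibitors; some compounds called inactive have numbers as strong as hits; positive values seem to mean higher polarization but the record does not say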
Target sequence (P41235 whole entry, looked up): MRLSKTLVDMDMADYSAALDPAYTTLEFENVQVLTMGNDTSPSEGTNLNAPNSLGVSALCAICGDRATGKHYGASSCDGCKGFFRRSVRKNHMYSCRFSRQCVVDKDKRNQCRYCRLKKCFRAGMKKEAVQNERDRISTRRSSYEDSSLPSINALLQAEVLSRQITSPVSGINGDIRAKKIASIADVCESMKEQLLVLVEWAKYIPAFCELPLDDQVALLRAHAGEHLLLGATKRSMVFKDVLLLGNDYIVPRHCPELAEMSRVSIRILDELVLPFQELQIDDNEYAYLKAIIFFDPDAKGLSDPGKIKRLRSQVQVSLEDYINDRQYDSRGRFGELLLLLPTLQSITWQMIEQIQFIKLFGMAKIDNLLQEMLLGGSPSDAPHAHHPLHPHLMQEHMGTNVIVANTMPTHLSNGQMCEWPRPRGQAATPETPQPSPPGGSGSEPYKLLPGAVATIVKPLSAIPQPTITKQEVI
E coli growth = inhibitors of Escherichia coli growth; OD600, 23 h; active compounds read low; 0.21% of 330,000 active; OD600 absorbance (test concentration not listed);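 active = OD600 absorbance below the run mean of sample wells minus 3.6 SD, in any replicate, cut at about 0.56 in these data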;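 note: stock transfer was 300 nL into about 60 µL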
FGF22 binding = binders of recombinant human FGF22 by thermal shift; Q9HCT0; SYPRO orange fluorescence; percent of sucrose octasulfate shift, DMSO zero; 1.5% of 340,000 active; calls only at 9.99 µM;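 active = melting point raised past a set limit in the mean and every replicate; inconclusive = no clear call; three in four hits are not shown here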
Target sequence (Q9HCT0 whole entry, looked up): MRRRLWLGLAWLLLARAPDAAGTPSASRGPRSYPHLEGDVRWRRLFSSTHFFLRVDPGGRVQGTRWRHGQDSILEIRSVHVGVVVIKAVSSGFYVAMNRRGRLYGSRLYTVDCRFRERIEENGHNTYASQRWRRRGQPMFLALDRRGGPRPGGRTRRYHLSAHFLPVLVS
Vif TR-FRET = HIV-1 Vif–A3G interaction blockers – biochemical, TR-FRET, GST-Vif 1-94, biotin-A3G peptide, dose response retest, primary screen (AID 1117319). TR-FRET GST-Vif / biotin-A3G peptide binding; higher % means a stronger effect; test concentration not given here; strong numbers were not always called active. inhibition, %, or IC50 in µM where a hit was titrated. 0.57% of 260,000 active;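 active = above the screen mean plus three standard deviations and confirmed in dose response; inconclusive = results disagree or hit not tested in dose response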;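 note: Vif residues 1-94 fused to GST binding biotinylated APOBEC3G peptide 110-148; 0% = full assay without inhibitor and 100% = GST in place of GST-Vif; retest series ran down from 100 µM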
Ecoli rRNA inh OD600 = also measured in Ecoli rRNA inh; calls as there; OD600 change, %; measured here: OD600 growth;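 optical density of the mix in the first replicate; 0 = DMSO median and -100 = no signal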
Ecoli rRNA inh RFP = second read-out of Ecoli rRNA inh, no call of its own (marks repeat the call); RFP signal change, %; measured here: RFP humanized mutant strains;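 first replicate; 0 = DMSO median and -100 = no signal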
* hit, by the source's call; & = joins results of further samples. The list is partial; the hit share may differ from the screen's.

`CC(C)n1cc(/C=C2/SC(=O)N(CC(=O)N3CCCC3)C2=O)c2ccccc21` gave ALR inh -2, HNF4A DNA FP -3.5, E coli growth 0.7 and Vif TR-FRET -5%.
For CC(OC(=O)CC1CC2CCC1C2)C(=O)Nc1ccc(C(N)=O)cc1 (configuration not stated) the results were Ecoli rRNA inh -5, AF4-AF9 inh 0.0, HNF4A DNA FP -6.5, E coli growth 0.7, FGF22 binding inactive, Ecoli rRNA inh OD600 -10 and Ecoli rRNA inh RFP -4.6.
Screening CSCCC(NC(=O)c1ccccc1)C(=O)OCC(=O)c1ccc[nH]1 (configuration not stated) returned Ecoli rRNA inh 6, AF4-AF9 inh inconclusive, ALR inh -8, HNF4A DNA FP 3.2, E coli growth 0.65, FGF22 binding inactive, Vif TR-FRET -7%, Ecoli rRNA inh OD600 4 and Ecoli rRNA inh RFP 1.5.
CCc1nc2ccc(C(=O)Nc3ccc(OC)c(OC)c3)cn2c1N(C)Cc1nccs1 was read as Ecoli rRNA inh -2, AF4-AF9 inh -1.5, HNF4A DNA FP 4.1, FGF22 binding inactive, Ecoli rRNA inh OD600 6 and Ecoli rRNA inh RFP -2.2.
For COc1ccc2c3c([nH]c2c1)[C@H](CO)N(Cc1ccc(F)cc1)CC31CN(Cc2ccccn2)C1 the results were Ecoli rRNA inh 1, AF4-AF9 inh 3.4, FGF22 binding inactive, Ecoli rRNA inh OD600 4 and Ecoli rRNA inh RFP -3.9.
`CC1=C(c2ccccc2)C(=O)C(C)(C)CC1=O` gave Ecoli rRNA inh 21, AF4-AF9 inh -2.5, FGF22 binding inactive, Ecoli rRNA inh OD600 15 and Ecoli rRNA inh RFP 0.2.
For COc1ccc(C(=O)C2CCCN(Cc3c(O)cccc3OC)C2)cc1OC (configuration not stated) the results were Ecoli rRNA inh -4, AF4-AF9 inh 0.6, HNF4A DNA FP 0.1, E coli growth 0.69, Ecoli rRNA inh OD600 -5 and Ecoli rRNA inh RFP -2.0.
Screening COc1ccc([N+](=O)[O-])cc1NC(=O)CCC(=O)c1cccs1 returned Ecoli rRNA inh 5, AF4-AF9 inh -2.3, ALR inh 2, HNF4A DNA FP -1.6, FGF22 binding inactive, Vif TR-FRET -9%, Ecoli rRNA inh OD600 1 and Ecoli rRNA inh RFP 1.0.
CC(=O)c1ccc(NC(=O)CNCc2cccs2)cc1 was read as Ecoli rRNA inh 5, AF4-AF9 inh -0.9, HNF4A DNA FP 2.4, E coli growth 0.65, FGF22 binding inactive, Vif TR-FRET -3%, Ecoli rRNA inh OD600 14 and Ecoli rRNA inh RFP -0.7.
For CC(C)CCN(C(=O)C1=COCCO1)c1c(N)n(Cc2ccccc2)c(=O)[nH]c1=O the results were Ecoli rRNA inh 9, AF4-AF9 inh 0.8, ALR inh 1, HNF4A DNA FP 2.8, E coli growth 0.63, FGF22 binding inactive, Vif TR-FRET 2%, Ecoli rRNA inh OD600 9 and Ecoli rRNA inh RFP 1.7.

At a glance, 2 of the compounds above:
Screening CSCCC(NC(=O)c1ccccc1)C(=O)OCC(=O)c1ccc[nH]1 (configuration not stated) returned Ecoli rRNA inh 6, AF4-AF9 inh inconclusive, ALR inh -8, HNF4A DNA FP 3.2, E coli growth 0.65, FGF22 binding inactive, Vif TR-FRET -7%, Ecoli rRNA inh OD600 4 and Ecoli rRNA inh RFP 1.5.
CCc1nc2ccc(C(=O)Nc3ccc(OC)c(OC)c3)cn2c1N(C)Cc1nccs1 was read as Ecoli rRNA inh -2, AF4-AF9 inh -1.5, HNF4A DNA FP 4.1, FGF22 binding inactive, Ecoli rRNA inh OD600 6 and Ecoli rRNA inh RFP -2.2.

Next structures follow.
For N#Cc1ccc(C23CC4(C2)[C@H](CN(Cc2ccc(C(F)(F)F)cc2)[C@@H]4c2ccccc2)C3c2ccc(Cl)nc2)cc1 (some centres not stated) the results were Ecoli rRNA inh 4, AF4-AF9 inh 2.9, FGF22 binding inactive, Vif TR-FRET -9%, Ecoli rRNA inh OD600 7 and Ecoli rRNA inh RFP 4.3.
`Cc1ccc2c(CC(=O)Nc3ccc(N4CCN(C)CC4)cc3C)coc2c1` gave ALR inh -9, HNF4A DNA FP 1.9, E coli growth 0.7 and Vif TR-FRET 2%.
Screening CCCNC(=O)N1CC2(CN(C(=O)CCC)C2)c2c(n(C)c3cc(OC)ccc23)[C@@H]1CO returned Ecoli rRNA inh 1, AF4-AF9 inh -9.8, FGF22 binding inactive, Ecoli rRNA inh OD600 7 and Ecoli rRNA inh RFP 4.5.
Screening O=C(NC(=S)Nc1cccc([N+](=O)[O-])c1)c1ccco1 returned ALR inh -3, HNF4A DNA FP -0.8, E coli growth 0.68 and Vif TR-FRET -3%.
For CCc1ccc(N2CN=c3s/c(=C\c4ccccc4)c(=O)n3C2)cc1 the results were Ecoli rRNA inh 15, AF4-AF9 inh 2.0, ALR inh 0, HNF4A DNA FP -0.7, FGF22 binding inactive, Ecoli rRNA inh OD600 4 and Ecoli rRNA inh RFP 37.
Cc1cccc(N(C(=O)c2snc(C(N)=O)c2N)C(C(=O)NC2CCCC2)c2ccncc2)c1 (configuration not stated) was read as Ecoli rRNA inh -3, AF4-AF9 inh 0.5, ALR inh -16, HNF4A DNA FP -0.3, E coli growth 0.71, FGF22 binding inactive, Ecoli rRNA inh OD600 5 and Ecoli rRNA inh RFP -3.7.
C[C@H](CO)N1C[C@H](C)[C@@H](CN(C)Cc2ccc(Oc3ccccc3)cc2)Oc2ccc(NC(=O)NC3CCCCC3)cc2C1=O was read as Ecoli rRNA inh 11, AF4-AF9 inh -1.1, FGF22 binding inactive, Ecoli rRNA inh OD600 8 and Ecoli rRNA inh RFP 2.6.
Screening CC(OC(=O)c1cccc(NS(C)(=O)=O)c1)C(=O)Nc1ccc2c(c1)OCO2 (configuration not stated) returned Ecoli rRNA inh -2, AF4-AF9 inh inconclusive, HNF4A DNA FP 1.8, E coli growth 0.65, FGF22 binding inactive, Vif TR-FRET inconclusive, Ecoli rRNA inh OD600 0 and Ecoli rRNA inh RFP -1.2.
`CC(OC(=O)c1n[nH]c2ccccc12)C(=O)Nc1ccccc1[N+](=O)[O-]` (configuration not stated) gave Ecoli rRNA inh -11, AF4-AF9 inh 1.8, ALR inh 3, HNF4A DNA FP -3.7, E coli growth 0.6, FGF22 binding inactive, Vif TR-FRET -10%, Ecoli rRNA inh OD600 -8 and Ecoli rRNA inh RFP 3.4.
O=C(Nc1ccccc1[N+](=O)[O-])c1cccc(N2C(=O)CCC2=O)c1 was read as Ecoli rRNA inh 0, AF4-AF9 inh -0.4, ALR inh -3, HNF4A DNA FP -2.5, E coli growth 0.67, FGF22 binding inactive, Vif TR-FRET 3%, Ecoli rRNA inh OD600 10 and Ecoli rRNA inh RFP -2.2.
`CC(C)Oc1ccc(S(=O)(=O)N2CCCCC2)cc1NC(=O)C1=COCCO1` gave Ecoli rRNA inh -15, AF4-AF9 inh 0.8, ALR inh -10, HNF4A DNA FP 1.0, E coli growth 0.7, FGF22 binding inactive, Vif TR-FRET 0%, Ecoli rRNA inh OD600 -25 and Ecoli rRNA inh RFP 6.4.
Screening Cc1ccc(S(=O)(=O)c2c(N)n(NC(=O)C3CC3)c3nc4ccccc4nc23)cc1 returned ALR inh -8, HNF4A DNA FP 1.7, E coli growth 0.7 and Vif TR-FRET 64%.
Screening C[C@@H]1CN([C@@H](C)CO)C(=O)Cc2cc(NS(=O)(=O)c3cn(C)cn3)ccc2O[C@H]1CN(C)Cc1ccc(C(=O)Nc2ccccc2N)cc1 returned Ecoli rRNA inh 0, AF4-AF9 inh -4.4, FGF22 binding inactive, Ecoli rRNA inh OD600 6 and Ecoli rRNA inh RFP 0.1.
O=C(c1ccco1)N1CCN(C(=O)c2cc(-c3ccccn3)nc3ccc(Cl)cc23)CC1 was read as HNF4A DNA FP -1.6, E coli growth 0.71 and Vif TR-FRET 2%&22%.
CCOC(=O)c1ccc(NC2c3ccccc3C(=O)N2c2ccccn2)cc1 (configuration not stated) was read as Ecoli rRNA inh 7, AF4-AF9 inh 3.6, ALR inh -8, HNF4A DNA FP -4.1, E coli growth 0.75, FGF22 binding inactive, Vif TR-FRET -2%, Ecoli rRNA inh OD600 13 and Ecoli rRNA inh RFP -1.1.
O=C(O)CCC(=O)Nc1cccc(C(=O)Nc2cccc(Cl)c2)c1 was read as ALR inh 1, HNF4A DNA FP -2.6, E coli growth 0.68 and Vif TR-FRET 2%.
For COc1ccc(N2CCN(CCNC(=O)C3CCN(S(=O)(=O)c4cccs4)CC3)CC2)cc1 the results were AF4-AF9 inh 3.0, ALR inh 12, HNF4A DNA FP 5.4, E coli growth 0.67, FGF22 binding inactive and Vif TR-FRET 8%&1%.
`O=C(Cn1c(NCCO)nc2ccccc21)c1ccc(F)cc1` gave Ecoli rRNA inh 5, AF4-AF9 inh 1.6, ALR inh -3, HNF4A DNA FP -1.3, E coli growth 0.68, FGF22 binding inactive, Vif TR-FRET -3%, Ecoli rRNA inh OD600 5 and Ecoli rRNA inh RFP -4.0.
`COc1ccc(C2NC(=O)NC(C)=C2[N+](=O)[O-])cc1` (configuration not stated) gave Ecoli rRNA inh 8, AF4-AF9 inh -10, ALR inh 8, HNF4A DNA FP -3.0, E coli growth 0.7, FGF22 binding inactive, Ecoli rRNA inh OD600 8 and Ecoli rRNA inh RFP 4.5.
`C[C@@H]1CN([C@H](C)CO)C(=O)c2cc(NC(=O)c3ccncc3)ccc2O[C@@H](C)CCCCO[C@H]1CN(C)C(=O)c1ccncc1` gave Ecoli rRNA inh 3, AF4-AF9 inh -4.0, FGF22 binding inactive, Ecoli rRNA inh OD600 11 and Ecoli rRNA inh RFP -1.5.
Screening O=C1Nc2ccccc2C(O)(C(=O)NCc2ccco2)N1c1ccc(Cl)cc1 (configuration not stated) returned ALR inh 0, HNF4A DNA FP 5.7, E coli growth 0.67 and Vif TR-FRET -1%.
Screening O=C(COCC(=O)Nc1cccc(C(F)(F)F)c1)Nc1cccc(C(F)(F)F)c1 returned ALR inh -7, HNF4A DNA FP 0.5, E coli growth 0.69 and Vif TR-FRET 1%.
For COc1ccccc1CNS(=O)(=O)c1c(C(=O)N2CCCC2)c(C)n(C)c1C the results were Ecoli rRNA inh 16, AF4-AF9 inh -0.5, ALR inh 7, HNF4A DNA FP -1.3, E coli growth 0.73, FGF22 binding inactive, Ecoli rRNA inh OD600 15 and Ecoli rRNA inh RFP 0.9.
C[C@@H]1CN([C@H](C)CO)S(=O)(=O)c2ccc(-c3cccc(C(=O)N(C)C)c3)cc2O[C@H]1CN(C)C(=O)Nc1ccccc1 was read as Ecoli rRNA inh 0, AF4-AF9 inh -10, FGF22 binding inactive, Ecoli rRNA inh OD600 -1 and Ecoli rRNA inh RFP -1.5.
For Cc1sc2nc(C3CC3)nc(N3CCN(C(=O)c4ccc(F)cc4)CC3)c2c1C the results were Ecoli rRNA inh -38, AF4-AF9 inh 0.0, ALR inh -2, HNF4A DNA FP 0.2, E coli growth 0.67, FGF22 binding inactive, Ecoli rRNA inh OD600 -46 and Ecoli rRNA inh RFP -3.7.
For COc1ccc(N2CCOCC2)c(NC(=O)COc2cccc(C)c2C)c1 the results were Ecoli rRNA inh 5, AF4-AF9 inh 1.2, ALR inh -9, HNF4A DNA FP -2.6, E coli growth 0.73, FGF22 binding inactive, Vif TR-FRET 2%, Ecoli rRNA inh OD600 -1 and Ecoli rRNA inh RFP -1.6.
`CCCCCn1c(=O)[nH]c2cc(C(=O)NCCN(CC)CC)ccc2c1=O` gave ALR inh 1, HNF4A DNA FP 6.5, E coli growth 0.69 and Vif TR-FRET -7%.
CNC(=S)NC1CC2CCC(C1)N2Cc1ccccc1 (configuration not stated) was read as ALR inh 3, HNF4A DNA FP -1.4, E coli growth 0.61 and Vif TR-FRET inconclusive.
